Screening data from PubChem.
FEN1 inhibitor: inhibitors of human flap endonuclease 1 | Recombinant FEN1 flap cleavage, fluorescence, 15 min | 390,000 compounds, 0.35% hits | P39748 | Potency, µM (series often up to 114 µM), without a hit: at the top dose activity change, negative = inhibition, most hits filed as inhibitors; also: nearly all actives have a fitted effect of over 65% in size
Target sequence (P39748 whole entry, looked up): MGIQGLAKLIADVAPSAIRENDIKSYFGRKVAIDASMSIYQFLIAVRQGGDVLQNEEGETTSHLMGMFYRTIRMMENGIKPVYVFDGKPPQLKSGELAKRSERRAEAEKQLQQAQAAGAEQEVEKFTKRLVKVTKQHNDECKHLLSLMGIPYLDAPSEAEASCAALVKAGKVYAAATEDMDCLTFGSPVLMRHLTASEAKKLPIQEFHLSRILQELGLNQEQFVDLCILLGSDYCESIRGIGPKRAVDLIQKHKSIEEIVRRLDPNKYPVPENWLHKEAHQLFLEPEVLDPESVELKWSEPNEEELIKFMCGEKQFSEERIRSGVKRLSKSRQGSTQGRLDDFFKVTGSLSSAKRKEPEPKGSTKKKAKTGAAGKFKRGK
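FEN1 at 10 nM preincubated with compounds 15 min at room temperature, then flap DNA substrate added at 50 nM final. Signal read at 0 and 15 min; concentration-response fitted with four-parameter Hill equation.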
GCN5L2 inh: inhibitors of human GCN5L2 histone acetyltransferase; Q92830; GCN5L2 HAT assay, ThioGlo1 CoA-SH fluorescence; Potency, µM (series often up to 58.9 µM), for inactives: at the highest dose activity change, negative = inhibition, actives largely listed as inhibitors; 390,000 compounds, 0.21% hits
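GCN5L2 (20 nM) in 50mM HEPES pH 7.5, 0.1mM EDTA, 0.01% Tween-20 preincubated 15 min with compounds at room temperature. Reaction started with H3(1-25) 75uM, acetyl-CoA 70uM, ThioGlo1 50uM; CoA-thiol fluorescence (Ex340/Em540) read at 0 and 20 min.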
The depositor's hits bear a star; ? = inconclusive; · = no result given; & = joins results of further samples; [ ] = dose if it differs, or a comment. Calls follow the shape of the dose curve; as a rule, active = well fitted curve in the direction sought with a large enough effect; inconclusive = small, poorly fitted or top-dose-only effect, or another doubt; inactive = no such curve, though single readings can be large; an effect the other way counts as inactive or inconclusive. % is scaled to controls: 0 for no effect and ±100 for the full control effect; potency is read from the fitted curve at half-maximal effect.

item	molecule	FEN1 inhibitor	GCN5L2 inh
1	O=C(CC1C(=O)NCCN1Cc1cccc(Oc2ccccc2)c1)NCCc1ccccn1 (configuration not stated)	-2%	-21%
2	CC(=O)C1=C(c2ccccc2)N(C(C)=O)n2c(C)nnc2S1	4%	-2%
3	O=C(CNC(=O)/C(=C/c1ccccc1)NC(=O)c1ccc(Br)cc1)OCc1ccccc1	-15%	-10%
4	CC1CCCN(C(=O)COC(=O)C2CCN(S(=O)(=O)c3ccc4c(c3)OCCO4)CC2)C1 (configuration not stated)	7%	-5%
5	COc1ccc(CCNC(=O)C2CCN(S(=O)(=O)c3ccc4c(c3)oc(=O)n4C)CC2)cc1OC	23%	1%
6	Cc1ccc(NC2CCCN(C(=O)Cc3nonc3C)C2)cc1C (configuration not stated)	12%	-6%
7	Oc1ccccc1N1CCN(c2ncnc3scc(-c4ccc(F)cc4)c23)CC1	8%	-18%
8	CNC(=O)c1cc(S(=O)(=O)Nc2ccc3c(c2)OCCO3)ccc1C	6%	29%
9	O=C(O)CCCCCn1c(SCC(=O)N2CCCC2)nc2ccsc2c1=O	-13%	-25%
10	CCOC(=O)C1(Cc2cccc(F)c2)CCN(CC2CC2)CC1	4%	-8%
11	COC(=O)c1c(NC(=O)c2ccco2)sc2c1CCC2	9%	-15%
12	O=C(C1CCN(Cc2cccs2)CC1)N1CCN(Cc2ccc3c(c2)OCO3)CC1	-4%	1%

Following part
item	molecule	FEN1 inhibitor	GCN5L2 inh
13	O=C(/C=C/c1ccc(F)cc1)NCc1cccs1	-1%	-2%
14	CC(C)Cn1c(CCNC(=O)c2ccco2)nc2ccccc21	-3%	-3%
15	CC(C)CC(=O)Nc1ccc2ccccc2c1	6%	-1%&-2%
16	Cc1ccc(-n2c(SCC(N)=O)nnc2-c2ccc(S(=O)(=O)N3CCCCC3)cc2)c(C)c1	0%	0%
17	Cc1ccccc1C=O	12%	-3%
18	N#CCCN1CCN(S(=O)(=O)c2cc(Cl)ccc2Cl)CC1	0%	-1%
19	Cc1ccc(CCNS(=O)(=O)c2cc(Br)cnc2N)cc1	0%	-6%
20	CCCN(CCC)CCCNC(=O)Cn1ncn2c(cc3sc(CC)cc32)c1=O	18%	-2%
21	COc1ccc(NS(=O)(=O)c2cc(NC(=O)c3cccs3)ccc2N2CCOCC2)cc1	2%	-10%
22	CCN(CC)S(=O)(=O)c1cccc(NC(=O)CNc2cccc(S(=O)(=O)N3CCOCC3)c2)c1	-4%	-2%
23	CCOc1ccc(NC(c2ccccn2)c2oc(CO)cc(=O)c2O)cc1 (configuration not stated)	1%	-4%
24	O=S(=O)([N-]c1nc2ccccc2nc1-[n+]1ccc(CCCc2ccccc2)cc1)c1cccs1	6%	-11%

Structural class, those above with a halogen.
item	molecule	FEN1 inhibitor	GCN5L2 inh
3	O=C(CNC(=O)/C(=C/c1ccccc1)NC(=O)c1ccc(Br)cc1)OCc1ccccc1	-15%	-10%
7	Oc1ccccc1N1CCN(c2ncnc3scc(-c4ccc(F)cc4)c23)CC1	8%	-18%
10	CCOC(=O)C1(Cc2cccc(F)c2)CCN(CC2CC2)CC1	4%	-8%
13	O=C(/C=C/c1ccc(F)cc1)NCc1cccs1	-1%	-2%
18	N#CCCN1CCN(S(=O)(=O)c2cc(Cl)ccc2Cl)CC1	0%	-1%
19	Cc1ccc(CCNS(=O)(=O)c2cc(Br)cnc2N)cc1	0%	-6%

Additional entries follow:
item	molecule	FEN1 inhibitor	GCN5L2 inh
25	CCOc1ccc(C(=O)NCCSc2c(C)[nH]c3ccccc23)cc1OCC	-2%	-3%
26	CN(/N=C/c1ccncc1)C1=NS(=O)(=O)c2ccccc21	4%	-6%
27	CCCC12C(=O)C(C)(C(c3ccccc3)=C1c1ccccc1)C1C(=O)N(c3ccc(C)cc3)C(=O)C12 (configuration not stated)	10%	-13%
28	CCOc1ccccc1CNS(=O)(=O)c1ccc2[nH]c(=O)sc2c1	7%	-2%
29	O=C1N=C2SCCN2/C1=C\c1ccccc1Cl	-6%	?
30	COc1ccc(-c2cc(C(F)(F)F)nc(SCCC(=O)N3CCOCC3)n2)cc1	-3%	-3%
31	CN(CC(=O)Nc1ccc(F)c(F)c1F)C(=O)Cn1cnc2c1c(=O)n(C)c(=O)n2C	-4%	-2%
32	N#C/C(=C\c1ccco1)C(=O)Nn1cnnc1	-1%	-13%
33	CC(NC(=O)c1cc(S(=O)(=O)N2CCOCC2)ccc1N1CCCC1)c1ccc(Cl)c(Cl)c1 (configuration not stated)	3%	-5%
34	CCN(CC)c1ccc(N/C(N)=N/c2nc(C(F)(F)F)cc(=O)[nH]2)cc1	-2%	-11%
35	C[C@H](CO)N1C[C@H](C)[C@@H](CN(C)Cc2ccccc2)Oc2c(NS(=O)(=O)c3ccccc3)cccc2C1=O	-5%	-1%
36	Cc1cccc(N2CCN(S(=O)(=O)c3c(C)nc4scc(C)n4c3=O)CC2)c1C	-15%&-4%	-8%&-4%

(continued)
item	molecule	FEN1 inhibitor	GCN5L2 inh
37	CC1(C)CC(NC(=O)c2ccc(Cl)c(Cl)c2)CC(C)(C)N1	-2%	-2%
38	CN(C)c1ccc(P(=O)(CC(=O)N/N=C/c2ccc(C#N)cc2)OCCCl)cc1 (configuration not stated)	-14%	-5%
39	C=CCNC(=S)NNC(=O)c1ccccc1OCC	7%	-7%
40	O=C(c1ccccn1)N(CC1CCCO1)C1(C(=O)NC2CCCCC2)CCCCC1 (configuration not stated)	8%	-4%
41	Cc1ccc(S(=O)(=O)N2CCOCC2)cc1C(=O)O	1%	9%
42	COc1cccc(OCCCN2CCCCC2)c1	4%	-2%
43	O=C(COC(=O)[C@@H]1CCCN1S(=O)(=O)c1ccccc1F)c1ccccc1	11%	-11%
44	COC(=O)COc1ccc(S(=O)(=O)NCC2CCCO2)cc1Cl (configuration not stated)	-3%	-2%
45	C[C@@]12C[C@@H](O)[C@H]3[C@@H](CCC4=CC(=O)CC[C@]43C)[C@H]1CC[C@H]2C(=O)CO	·	5%[21.4 µM]
46	O=C(CSc1ccc(-c2ccncc2)nn1)N1CCCCC1	-4%	-8%
47	CC(=O)c1ccc(OC(=O)c2c(-c3ccccc3Cl)noc2C)cc1	-17%	-14%
48	COc1cccc(Oc2nc3c(c(=O)n(Cc4ccccc4Cl)c(=O)n3C)n2C)c1	-4%	0%

More results follow.
item	molecule	FEN1 inhibitor	GCN5L2 inh
49	COc1ccc(CNC(=O)CN2CCN(S(=O)(=O)c3c(C)c(C)cc(C)c3C)CC2)cc1OC	-15%	-6%
50	CC(=O)c1ccc(OCc2cc(C(=O)N3CCC(Oc4ccccc4C)CC3)no2)cc1	-22%	?
51	Cc1cc(C)n2nc(SCC(=O)c3cccs3)nc2n1	-11%	-10%
52	CC(C)N(CCn1c(SCC(=O)Nc2cccnc2Cl)nc2ccccc2c1=O)C(C)C	-3%	3%
53	O=C(Nc1ccc(Cl)cn1)Nc1ccccc1Cl	-7%	?
54	CCN1C(=O)C(Cc2nc3ccccc3c(=O)n2-c2ccc(OC)cc2)c2cc(C)ccc21 (configuration not stated)	-5%	-6%
55	CS(=O)c1ccccc1COC(=O)Nc1ccccc1 (configuration not stated)	0%	-4%
56	CN(C)c1cccc(C(=O)NCc2ccccc2Cl)c1	7%	-6%
57	CCN1CCN(c2cc3c(cc2F)c(=O)c(S(=O)(=O)c2ccc(OC)cc2)cn3CC)CC1	-4%	-4%
58	CC(C)Cn1c(SCC(=O)N2CC(=O)Nc3ccccc32)nc2ccccc21	-6%	1%
59	CCc1ccc(C(=O)NNC(=O)c2n[nH]c(=O)c3ccccc23)cc1	-7%	-7%
60	N/C(=N\OC(=O)c1cccnc1)c1ccc(Cl)cc1Cl	12%	-2%

(list continues)
item	molecule	FEN1 inhibitor	GCN5L2 inh
61	O=C(O)/C=C\c1ccccc1Oc1ccc(F)cc1	12%	-1%
62	Fc1cccc(Cc2noc(CN3CCCN(C4Cc5ccccc5C4)CC3)n2)c1	7%	0%
63	CC(=O)c1cc(Cc2csc(C(C)=O)c2)cs1	2%	0%
64	Cc1ccc(S(=O)(=O)N2CCCOC2CNC(=O)C(=O)NCc2cccnc2)cc1 (configuration not stated)	0%	-1%
65	CCOC(=O)N1CCc2c(sc3c2c(=O)n(CCc2ccccc2)c(=O)n3Cc2ccc(F)cc2)C1	8%	-10%
66	C[C@@H](NC(=O)c1nc[nH]c1C(=O)N[C@@H](Cc1ccccc1)C(=O)OC(C)(C)C)c1ccccc1	-3%	-12%
67	CCOC(=O)C1CCCN(S(=O)(=O)CCNC(=O)c2ccccc2)C1 (configuration not stated)	-2%	0%
68	C#C[C@]1(O)CCC2C3CCC4=Cc5oncc5CC4(C)C3CCC21C (some centres not stated)	17%	·
69	COC(=O)c1c(C)nc(C)c(C(=O)OC)c1-c1ccc(OC)cc1	-2%	-4%
70	Cc1c(C(=O)NC2CCCCC2)sc2ncnc(N3CCN(c4ccccc4)CC3)c12	1%	-2%
71	NC(=O)CCSC(=S)N1CCOCC1	4%	-16%
72	O=C(O)c1cnn(-c2ccccc2)c1-c1ccccc1	7%	0%

Additional records follow.
item	molecule	FEN1 inhibitor	GCN5L2 inh
73	COc1ccc(N2CCN(c3nccs3)CC2)cc1	-2%	0%
74	CCCc1nnc(NC(=O)CN2C(=O)C3C4C=CC(C4)C3C2=O)s1 (configuration not stated)	-11%	55%[activator]
75	Cn1c(=NC(=O)C2CC2)sc2cccc(F)c21	-7%	-4%
76	COc1ccc(/C=C/C(=O)Oc2cccc(/C=N/NC(=O)c3cccc(F)c3)c2)cc1	8%	-10%
77	COc1cc(SC)ccc1C(=O)NCCOc1ccc(Cl)cc1	3%	-3%
78	CCC(C)NC(=O)Cn1c(=O)cc(-c2ccccc2)c2c(C)nn(C)c21 (configuration not stated)	-5%	-5%
79	O=C(Nc1ccc(N2CCOCC2)cc1)C1CC(=O)N(c2ccccc2)C1 (configuration not stated)	-1%	-8%
80	CC(C)COc1cccc(C(=O)NC(=S)Nc2cccc(NC(=O)c3ccccc3Cl)c2)c1	-10%	22%
81	COc1ccc(NC(=S)NCCc2ccc(S(N)(=O)=O)cc2)c(OC)c1	9%	-3%
82	CCN(c1ccccc1C)S(=O)(=O)c1nnc(NC(=O)c2ccco2)s1	-8%&-1%	-13%&-4%
83	O=C(CN1C(=O)c2cccc3cccc(c23)C1=O)N1CCCCCC1	-5%	-3%
84	Cc1ccc(C(=O)/C=C\Nc2ccc(C)c(C)c2)cc1	4%	-9%

(listing goes on)
item	molecule	FEN1 inhibitor	GCN5L2 inh
85	COc1ccccc1N1CCN(C(=O)/C=C/c2cccc([N+](=O)[O-])c2)CC1	-3%	-6%
86	O=C1NC[C@@H](c2ccccc2)OC(=O)[C@@H](Cc2ccc(F)cc2)CC/C=C/C[C@@H]1CC(=O)N(CCO)Cc1ccccc1	4%	-4%
87	CC(=O)SCCC(=O)Nc1ccccc1	-16%	-3%
88	CC(=O)Nc1c(O)nc(SCC(=O)N2CCCCC2)[nH]c1=O	2%	1%
89	COc1ccc(-c2nc3ccccc3c(=O)n2CCOc2cccc(C)c2C)cc1	17%	-7%
90	CC1=C(c2ccc(C)c(C)c2)S(=O)(=O)N=C1N1CCC(C(=O)NC(C)c2ccccc2)CC1 (configuration not stated)	-6%	-4%
91	O=C(CSc1nc(-c2ccc(F)cc2)cc(C(F)(F)F)n1)NCCc1ccccc1	0%	-5%
92	CCn1ccnc1CN(C)C(=O)c1ccc(OC2CCN(CCc3ccccc3)CC2)cc1	16%	-6%
93	CC(=O)NCCOC(=O)Nc1sc(=S)n(C)c1C	-13%	-1%
94	CC(C)(C)NC(=O)CN(C(=O)C1(C)CC(=O)N=C2C=CC=CN21)C1CCCC1 (configuration not stated)	0%	-2%
95	Cc1c(NC2(C#N)CCCCC2)c(=O)n(-c2ccccc2)n1C	2%	-7%
96	CCOC(=O)C1(C(F)(F)F)N=C(C(F)(F)F)Nc2ccc(F)cc21 (configuration not stated)	0%	-6%

Carrying on.
item	molecule	FEN1 inhibitor	GCN5L2 inh
97	COC(=O)c1c(SC)nc2ccccc2c1OCc1ccc(C)cc1	-10%	-14%
98	c1ccc2c(Cn3nnc4ccccc43)cccc2c1	-7%	0%
99	Cc1ccsc1/C=N/n1cnc2sc(C)c(C)c2c1=O	-1%	-3%
100	CC(C)CC(=O)NC(=S)Nc1ccccc1F	-12%	·
101	COc1cccc(OCc2cc(C(=O)N(C)Cc3nccn3C)no2)c1	-5%	1%
102	CC1CCc2sc(C(=O)NCc3ccc(F)cc3)cc2C1 (configuration not stated)	-24%	-7%
103	Cc1ccc2oc(=O)c3cc(C(=O)NCCc4ccc(Cl)cc4)sc3c2c1	18%	-4%
104	O=C(NCCN1CCOCC1)c1cc(-c2cccs2)on1	7%	-1%
105	O=C(CNC(=O)c1ccc(Br)o1)NCC1CCCO1 (configuration not stated)	-11%	-6%
106	CC1=Nc2cc(C(=O)O)ccc2Sc2ccc(C)cc21	20%	-3%
107	CC(C)CC(=O)NC(NCC1CCCO1)C(Cl)(Cl)Cl (configuration not stated)	5%	2%
108	COC(=O)CN1C(CN2CCOCC2)=Nc2ccc(Br)cc2C1c1ccccc1 (configuration not stated)	-4%	?
109	O=C(CSCc1ccccc1Cl)NN1C(=O)c2ccccc2C1=O	-7%	19%
110	CCCCNC(=S)NNC(=O)c1csc(C)c1CC	8%	-2%
111	Cc1cc(C)cc(NC(=O)CSc2nccn2C2CCCC2)c1	-6%	1%

Only part of the results is shown, and most or all hits are left out here.
